Source: PubChem (National Center for Advancing Translational Sciences (NCATS))
SARS PLpro yeast = blocks SARS-CoV papain-like protease in a yeast assay; S. cerevisiae expressing SARS-CoV PLpro, growth rescue; control for the full effect not named in the record; 330,000 tested, 0.19% active; Potency, µM (top dose mostly 32.9 µM), for the others: at the top dose activity, positive = growth rescue; AID 485353; active means well fitted rising curve with a large enough effect; inconclusive means small, poorly fitted or top-dose-only effect; inactive means no such curve, though single readings can be large or run the other way; note: 0% is about no effect; nearly all actives have a fitted effect of over 55% in size; growth read by luminescence after 48 h
Marburg entry inh = Marburg virus entry inhibition. Potency, µM (series often up to 37.8 µM), for inactives: at the highest dose activity change, negative = inhibition, hits mostly inhibitors. Marburg virus pseudotyped entry inhibition, cell reporter; control for the full effect not named in the record; about a third of the inactives were read at about 46 µM. 300,000 tested, 1.8% active. AID 540276; active = well fitted inhibition curve with a large enough effect; inconclusive = small, poorly fitted or top-dose-only effect, or effect the other way; inactive = flat fitted curve, though single readings scatter; tested in HEK293 cells; about a fifth of its hits are not listed in these tables; note: % is set by controls: 0 for no effect and ±100 for the full control effect; luciferase read-out
NS1 inh = blocks influenza NS1 protein function; S. cerevisiae slowed by influenza A NS1, growth recovery by OD600; Potency, µM (titrated, usually from 46.1 µM), for the others: at the top dose activity, positive = more growth; 270,000 tested, 0.4% active; active means well fitted rising curve with a large enough effect; inconclusive means small, poorly fitted or top-dose-only effect; inactive means no such curve, though single readings can be large or run the other way; note: nearly all actives have a fitted effect of over 50% in size
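OD600 was taken as the measure of yeast growth restored by compound in an NS1-expressing S. cerevisiae strain. Cells had been washed out of glucose medium and diluted 1:100 into galactose -URA medium, pH 6.0.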
Cruzain Triton = inhibitors of Trypanosoma cruzi cruzain with detergent. P25779. 200,000 tested, 0.43% active. purified cruzain, Z-FR-AMC fluorescence, 0.01% Triton. Potency, µM, for the others: max response, negative = inhibition, most hits filed as inhibitors;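 note: plate controls were neutral wells for no effect and buffer without enzyme for full effect; nearly all actives have a fitted effect of over 40% in size; top concentration of the series not given in the record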
Target sequence (P25779 123-467 limits assumed): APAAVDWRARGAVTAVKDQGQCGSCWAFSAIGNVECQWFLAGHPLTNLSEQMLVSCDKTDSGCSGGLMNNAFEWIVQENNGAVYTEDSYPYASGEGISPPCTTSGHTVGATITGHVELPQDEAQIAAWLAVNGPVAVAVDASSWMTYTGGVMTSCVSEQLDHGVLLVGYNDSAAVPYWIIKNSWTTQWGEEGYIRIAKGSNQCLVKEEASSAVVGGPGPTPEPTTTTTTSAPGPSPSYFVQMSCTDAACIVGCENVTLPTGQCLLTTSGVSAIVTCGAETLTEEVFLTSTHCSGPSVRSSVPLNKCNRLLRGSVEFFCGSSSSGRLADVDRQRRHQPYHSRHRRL
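Detergent-containing arm of a paired screen for aggregation-based inhibition: 0.01% Triton X-100 present. Cruzain at 1.5 nM cleaved 2 uM Z-FR-AMC at pH 5.5 with 5 mM DTT; AMC fluorescence gain over 60 s measured activity.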
LASV entry inh = blocks Lassa virus binding to or entry into cells | Lassa virus pseudotype entry inhibition, cell reporter; control for the full effect not named in the record | Potency, µM (titrated, usually from 37.9 µM), inactives show at the highest dose activity change, negative = inhibition, usual class: inhibitors | 300,000 tested, 1.2% active; active means well fitted inhibition curve with a large enough effect; inconclusive means small, poorly fitted or top-dose-only effect, or effect the other way; inactive means flat fitted curve, though single readings scatter; tested in HEK293 cells; note: % is set by controls: 0 for no effect and ±100 for the full control effect; nearly all actives have a fitted effect of over 50% in size; luciferase read-out
RE007 growth inh = less growth of the S. pombe RE007 Vpr strain. AID 651644. 360,000 tested, 0.21% active. S. pombe RE007 Vpr strain, BacTiter-Glo ATP luminescence, 24 h; control for the full effect not named in the record. Potency, µM (doses to about 92.2 µM), without a hit: at the top dose activity change, negative = less growth; active = well fitted falling curve with a large enough effect; inconclusive = small, poorly fitted or top-dose-only effect; inactive = no such curve, though single readings can be large or run the other way;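 note: % is set by controls: 0 for no effect and ±100 for the full control effect; nearly all actives have a fitted effect of over 50% in size; the assay follows cell death caused by Vpr and the record does not say whether a fall means rescue or toxicity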
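Fission yeast strain RE007, carrying one chromosomally integrated HIV-1 vpr copy, was seeded at OD 0.01 in PMG+AL medium with 23 nL pinned compound. After 24 h at 30 °C and 99% humidity, viability was read by BacTiter-Glo luminescence.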
Cruzain inh noDet = blocks cruzain activity in detergent-free assay; 200,000 tested, 2.3% active; purified cruzain, Z-FR-AMC fluorescence, no detergent; Potency, µM, without a hit: max response, negative = inhibition, most hits filed as inhibitors; AID 1476; P25779;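 note: plate controls were enzyme without inhibitor for no effect and buffer without enzyme for full effect; nearly all actives have a fitted effect of over 40% in size; top concentration of the series not given in the record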
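Detergent-free condition (0.00005% Triton X-100) in acetate buffer pH 5.5 with DTT. 1.5 nM enzyme and compound were pre-mixed 15 min, then 2 uM Z-FR-AMC substrate added; reaction progress from fluorescence change between first and third reads (60 s).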
2A StopGo = lowers the luciferase signal of an FMDV 2A StopGo reporter | human cells with a luciferase reporter of 2A StopGo recoding; control for the full effect not named in the record | Potency, µM (titrated, usually from 57.9 µM), inactives show at the highest dose signal change, negative = less light | 410,000 tested, 1.2% active; active = well fitted falling curve with a large enough effect; inconclusive = small, poorly fitted or top-dose-only effect; inactive = no such curve, though single readings can be large or run the other way; tested in HEK293T cells; note: % is set by controls: 0 for no effect and ±100 for the full control effect; nearly all actives have a fitted effect of over 45% in size; luciferase light after 4 h
Active calls of the source: *; ? = inconclusive; nt = no result given; & = joins results of further samples; [ ] = another dose, or the depositor's remark. Unless noted, calls come from the whole dose curve; as a rule, active = well fitted curve in the direction sought with a large enough effect; inconclusive = small, poorly fitted or top-dose-only effect, or another doubt; inactive = no such curve, though single readings can be large; an effect the other way counts as inactive or inconclusive. Potency is the fitted concentration of half-maximal effect. Outcome played no part in choosing rows, and some 4.7% of all compounds hit somewhere here.

SMILES	SARS PLpro yeast	Marburg entry inh	NS1 inh	Cruzain Triton	LASV entry inh	RE007 growth inh	Cruzain inh noDet	2A StopGo
Cc1ccc(C(=O)NC2CCN(Cc3ccccc3)CC2)cc1S(=O)(=O)N1CCOCC1	nt	-21%	nt	nt	-7%	-6%	nt	-27%
COCCSc1nnc(NC(=O)Cc2cccs2)s1	-3%	11%	-7%	4.9%	17%	-1%	?	-6%
CCC(C(=O)O)n1c(C(F)(F)F)nc2ccccc21 (stereo unspecified)	0%	0%	9%	0.3%	1%	3%	-3%	-1%
O=C(CCc1ccccc1Cl)Nc1ccc(S(=O)(=O)Nc2nccs2)cc1	-1%	-10%	nt	nt	-6%	4%	nt	30%
CC(=O)Nc1ccc2nc(NC(=O)COc3ccccc3C)sc2c1	1%	13%	nt	nt	12%	1%	nt	20%
Cc1c(Cl)cccc1NC(=S)N(C)CCC#N	0%	?	nt	nt	-8%[46.1 µM]	6%	nt	3%
Cc1cccc(-n2c(O)c(C=NCc3ccccn3)c3ccccc3c2=O)c1	4%	2%	5%	-6.1%	-6%	-1%	-13%	-27%
Cc1c(C(=O)N(Cc2ccccc2F)C2CCS(=O)(=O)C2)oc2ccc(F)cc12 (stereo unspecified)	nt	?	nt	-7.5%	-24%[46.1 µM]	nt	26%	0%
CCOC(=O)CN1NC2(CCC(C)CC2)NC1=S (stereo unspecified)	13%	28%	-4%	2.8%	1%	10%	2%	7%
CCOc1ccc(S(=O)(=O)N2CCC(C(=O)NCc3ccccn3)CC2)cc1	-1%	12%[46.1 µM]	-19%	nt	-26%[46.1 µM]	-2%	nt	12%
CCCC(=O)N1CCc2cc(-c3nc(N)sc3C)ccc21	-14%	20%	-47%	-2.6%	-11%	15%	-3%	0%
Nc1cc(=O)[nH]c(=S)n1-c1ccccc1	6%	3%	5%	-5.2%	?	2%	-4%	12%
COc1ccc(C(=O)N2CCC(N3CCN(c4ccccc4)CC3)CC2)cc1OC	25%	13%&13%	1%	5.7%	-11%	12%	-9%	4%
COc1ccc(-n2c(=O)c3ccccc3n(CC(=O)Nc3cc(C)on3)c2=O)cc1OC	3%	2%	-6%	1.1%	5%	23%	-10%	-17%
Cc1ccccc1OCc1nnc(SCC(=O)O)n1Cc1ccccc1	0%	?	1%	nt	4%	11%	nt	1%
CCOCCCNC(=O)c1cnc2sc(N3CCCCCC3)nn2c1=O	nt	nt	nt	-12%	-13%[46.1 µM]	nt	-5%	6%
Cc1cnc(C(=O)OCC(=O)N2CCc3ccccc3C2)cn1	3%	9%	2%	2.8%	11%	-2%	-8%	-11%
Cc1ccc2c(c1)CC1(CN2C)C(=O)NC(=O)N(c2ccc(C)c(C)c2)C1=O (stereo unspecified)	-5%	-8%	14%	-3.0%	-7%	-1%	1%	0%
Cn1c(=O)c2c(SCC(N)=O)nc(CC(C)(C)C)nc2n(C)c1=O	-6%	nt	-11%	3.8%	nt	-9%	-1%	-32%
COc1cccc(CN(C(=O)COc2ccc(C)cc2)C2CCS(=O)(=O)C2)c1 (stereo unspecified)	3%	1%[46.1 µM]	0%	nt	?	19%	nt	56%[activator]
CC(C)(C)C(=O)NC1(C(F)(F)F)NC(=O)N(CCc2ccccc2)C1=O (stereo unspecified)	-1%	-11%[46.1 µM]	-1%	nt	-7%[46.1 µM]	1%	nt	8%
O=C(O)C1C2CCC(O2)C1C(=O)NCc1ccccc1Br (stereo unspecified)	0%	4%[46.1 µM]	3%	nt	-1%[46.1 µM]	-29%	nt	-3%
FC(F)(F)c1ccc(CNCCc2ccc3c(c2)OCO3)cc1	-1%	0%	-2%	nt	nt	-14%	nt	22%
Cc1ccc(S(=O)(=O)Nc2nnc(C3CCCCC3)s2)cc1	-6%	11%[46.1 µM]	-44%	nt	0%[46.1 µM]	-2%	nt	32%[activator]
COc1ccccc1N1C(=S)NC2CS(=O)(=O)CC21 (stereo unspecified)	0%	-4%[46.1 µM]	1%	nt	18%	5%	nt	-6%
O=[N+]([O-])c1ccc(O)c(/C=N/Nc2ccccc2Cl)c1	-12%	?	nt	nt	?	133%	nt	-14%
COc1ccccc1C1CC(=O)Nc2c1c(=O)n(C)c(=O)n2C (stereo unspecified)	7%	nt	5%	6.7%	nt	6%	-5%	-3%
Cn1c(=O)c2nc(NCc3ccccc3)cnc2n(C)c1=O	10%	?	-9%	-4.1%	-6%	-7%	-2%	-28%
Cc1ccc(Cl)cc1NC(=O)c1sc2nc(C)c(C)c(C)c2c1N	nt	0%[46.1 µM]	nt	0.1%	11%[46.1 µM]	nt	-4%	21%
COc1cc(/C=C2/NC(=O)N(CC(=O)Nc3cccc(C)c3)C2=O)ccc1OCC(N)=O	0%	-2%[14.2 µM]	3%	nt	-30%	5%	nt	-11%
CN(c1ccccc1)S(=O)(=O)c1cccc(NC(=O)COc2cccc([N+](=O)[O-])c2)c1	4%	-25%	nt	nt	-20%	-7%	nt	?
Cc1cc(C)n(-c2ncc3c(n2)N(CCO)CCOC3=O)n1	0%	nt	0%	nt	nt	-4%	nt	-17%
O=C(Cc1nc2ccccc2[nH]1)c1ccc(Br)cc1	-11%	-12%[46.1 µM]	nt	nt	-17%	?	nt	3%
Cc1cccc(N(Cc2cc3ccccc3[nH]c2=O)C(=O)c2cccc(Cl)c2)c1	nt	?	nt	-10.0%	-4%[46.1 µM]	nt	?	-14%
Cc1ccc(Cn2c(=O)n(Cc3ccccc3Cl)c(=O)c3ccccc32)cc1	nt	-13%[46.1 µM]	nt	-1.1%	-20%[46.1 µM]	nt	2%	-5%
COc1ccc(Cc2c(C)nn(-c3nc(C)c(C(=O)Nc4ccc(C)cc4C)s3)c2C)cc1	nt	8%[46.1 µM]	nt	-0.1%	8%[46.1 µM]	nt	3%	-25%
CCC(=O)N1CCc2cc(S(=O)(=O)CCC(=O)N3CCN(c4ccccc4F)CC3)ccc21	6%	8%&8%[46.1 µM]	-19%	-1.7%	27%[46.1 µM]	3%	0%	-13%&-18%
Cc1ccc(C)c(S(=O)(=O)N2CCCOC2CNC(=O)C(=O)NCCN2CCOCC2)c1 (stereo unspecified)	0%	9%	11%	nt	-3%	34%	nt	-4%
CC(=O)Nc1nc(COc2ccc3ccccc3c2)cs1	-4%	-17%	-12%	-1.1%	?	4%[3.69 µM]	-21%	-10%
COc1ccc(OC)c(C2C(C(=O)c3ccc(C)o3)=C(O)C(=O)N2CCN2CCOCC2)c1 (stereo unspecified)	-1%	nt	8%	nt	nt	10%	nt	4%
O=C(CSc1nnc(Cn2c(=O)sc3ccccc32)n1-c1ccccc1)Nc1nccs1	-6%	-1%&-1%	-57%	-3.5%	11%	-6%	-25%	0%
O=C(O)CSc1nnc(-c2ccncc2)n1-c1ccc(Cl)cc1	-5%	-3%	-6%	1.0%	-6%	15%	2%	10%
COC(=O)C1CCCCN1C(=O)c1ccc2oc(C(C)C)nc2c1 (stereo unspecified)	-1%	7%[46.1 µM]	8%	nt	8%[46.1 µM]	-3%	nt	25%
COc1ccccc1-c1c(NC(=O)c2ccco2)n(-c2ccccc2)nc(C)c1=O	0%	0%	5%	6.4%	nt	nt	-3%	nt
COC(=O)COc1cccc(/C=N/NC(=O)CCSc2ccccc2)c1	-5%	-31%[46.1 µM]	nt	nt	15%	-1%	nt	-11%
Cn1nnnc1SCCNC(=O)C1CCC(=O)N(CCc2cccc(F)c2)C1 (stereo unspecified)	1%	nt	1%	nt	nt	7%	nt	0%
Cc1ccc(NS(=O)(=O)c2ccc3c(c2)n(C)c(=O)n3C)cc1C	2%	-6%&-6%[46.1 µM]	-16%	-2.3%	4%[46.1 µM]	-5%	12%	24%&37%
C=CCN1C(=O)C(Cc2ccc(OCC)cc2)SC1=Nc1ccc(C(=O)O)cc1 (stereo unspecified)	?	-1%	-8%	-3.5%	-6%	11%	-5%	-2%
O=C(Nc1ccc(N=Nc2ccccc2)cc1)c1ccc(Cl)cc1Cl	2%	-7%	0%	7.2%	-21%	-6%	13µM*	nt
CC(C)N1CCN(Cc2cccc(-c3ccco3)c2)CC1CCO (stereo unspecified)	1%	?	0%	nt	19%[46.1 µM]	6%	nt	-16%

The listing continues.
SMILES	SARS PLpro yeast	Marburg entry inh	NS1 inh	Cruzain Triton	LASV entry inh	RE007 growth inh	Cruzain inh noDet	2A StopGo
CCC(=O)N(Cc1ccco1)c1nc(C(=O)Nc2ccc(Cl)cc2)c(C)s1	-13%	nt	-2%	-15%	nt	-4%	-19%	0%
CCOc1ccccc1CNC(=O)c1sc2ncccc2c1-n1cccc1	nt	nt	nt	-3.2%	10%[46.1 µM]	nt	3%	0%
Cc1cccc(-n2c(SCC(N)=O)nnc2-c2ccco2)c1	-5%	nt	-40%	nt	nt	3%	nt	10%
CCN(C(=O)COC(=O)c1n[nH]c2ccccc12)C1CCS(=O)(=O)C1 (stereo unspecified)	11%	?	27%	1.8%	0%	-20%	3%	-17%
CCCCCn1c(=O)c(C(=O)Nc2ccccc2S(N)(=O)=O)c(O)c2ccccc21	0%	?	3%	nt	?	19%	nt	-12%
CN(C)C(CNC(=O)c1ccc(S(=O)(=O)N(C)C)cc1)Cc1ccccc1 (stereo unspecified)	2%	?	nt	nt	nt	-1%	nt	-1%
Cc1ccc(-n2c(=O)c3ccc(C(=O)NCc4ccccc4Cl)cc3n(CC(=O)Nc3cccc(Cl)c3)c2=O)cc1	nt	20%[46.1 µM]	nt	-1.9%	?	nt	-9%	0%
CCOC(=O)c1nn(-c2ccc(F)cc2)c2c1CC/C2=C/c1ccccc1	-20%	-12%	4%	-8.9%	-11%	7%	-10%	0%
Clc1ccccc1CSc1cc2c(nn1)-c1ccccc1CC2	-15%	?	-3%	4.9%	4%	9%	5%	23%
CCOc1ccc(N2CC(C(=O)Nc3nnc(Cc4ccc(OC)cc4)s3)CC2=O)cc1 (stereo unspecified)	-2%	?	-2%	nt	nt	1%	nt	-8%
CC1(C(=O)NCc2ccc(Cl)c(Cl)c2)Oc2ccccc2NC1=O (stereo unspecified)	0%	-29%[46.1 µM]	nt	nt	?	-7%	nt	-26%
NC(=O)C1CCN(c2nc3c(S(=O)(=O)c4ccccc4)nnn3c3ccccc23)CC1	7%	nt	1%	nt	nt	-8%	nt	16%
CC(C)(C)c1ccc(C(=O)N2CCNCC2)cc1	3%	-6%	2%	4.6%	-5%	0%	10%	12%
Cc1ccc(C)c(NC(=O)Cc2coc3cc4c(cc23)CCC4)c1	13%	17%	13%	-2.5%	-3%	-4%	-5%	-6%
